MbtI inh = MbtI salicylate synthase inhibition | P9WFX0 | 100,000 tested, 0.89% active | inhibition, %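 (about 17 µg/mL by stock and volumes)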 | AID 493033 | purified MbtI enzyme, fluorescence intensity read-out;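 active = above 50% in both replicates, above 80% if mildly self-fluorescent; inactive = the rest, strongly fluorescent compounds included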;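 also: 0% = mean of negative and 100% = mean of positive controls; one replicate is shown; some compounds called inactive have numbers as strong as hits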
Target sequence (P9WFX0 whole entry, looked up): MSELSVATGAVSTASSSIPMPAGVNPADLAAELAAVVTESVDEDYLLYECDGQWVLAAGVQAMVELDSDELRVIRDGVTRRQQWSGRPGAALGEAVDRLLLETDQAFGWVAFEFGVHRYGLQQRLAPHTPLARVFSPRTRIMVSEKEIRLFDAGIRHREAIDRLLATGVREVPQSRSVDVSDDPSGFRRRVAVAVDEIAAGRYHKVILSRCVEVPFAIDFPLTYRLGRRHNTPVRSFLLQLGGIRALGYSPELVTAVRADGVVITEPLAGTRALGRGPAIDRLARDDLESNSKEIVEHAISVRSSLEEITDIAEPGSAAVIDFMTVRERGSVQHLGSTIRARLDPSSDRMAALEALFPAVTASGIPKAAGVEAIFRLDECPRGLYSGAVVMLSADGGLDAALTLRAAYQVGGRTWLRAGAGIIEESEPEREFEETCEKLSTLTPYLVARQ
MenB inh = Mtb MenB enzyme inhibition | P9WNP5 | MenB enzyme assay, absorbance read-out; some hits fall short of the stated cut | inhibition, %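 (about 12 µg/mL by stock and volumes)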 | 100,000 tested, 0.43% active;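 active = mean of two replicates above 30%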;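 also: 0% = no compound and 100% = wells with inactive enzyme; the first replicate is given; strong numbers were not always called active; inactives centre near -10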
Target sequence (P9WNP5 whole entry, looked up): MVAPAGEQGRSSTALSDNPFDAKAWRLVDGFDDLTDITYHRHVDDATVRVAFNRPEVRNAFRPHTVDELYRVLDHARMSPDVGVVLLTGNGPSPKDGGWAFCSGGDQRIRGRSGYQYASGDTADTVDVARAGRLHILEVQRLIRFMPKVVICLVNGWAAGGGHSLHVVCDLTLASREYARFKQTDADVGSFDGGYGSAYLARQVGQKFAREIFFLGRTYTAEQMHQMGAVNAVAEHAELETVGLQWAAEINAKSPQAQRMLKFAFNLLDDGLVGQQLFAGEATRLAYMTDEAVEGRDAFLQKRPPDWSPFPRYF
PV pol inh = poliovirus RNA polymerase inhibition; 150,000 tested, 0.66% active; P03300; poliovirus polymerase elongation, fluorescence polarization; stronger effect = lower value; % elongation, % (compound at 16.7 µg/mL); in the data active = % elongation below about 90%; also: some results filed as inactive read as strong as hits
PV pol inh intensity = also measured in PV pol inh; calls as there; % elongation; measured here: total intensity read-out; formula for this scale not given here;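 total fluorescence in place of polarization; lower means less elongation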
* marks the source's active call; other numbers are inactive results; i = inactive; · = not tested or not shown.

SMILES | MbtI inh | MenB inh | PV pol inh | PV pol inh intensity
Cc1cc(C)c(C(N)=O)c(NCCc2ccccc2)n1 | · | 2 | 96 | 105
O=C(Cn1c(=O)oc2cc(S(=O)(=O)NCc3ccccc3)ccc21)N1CCCCCC1 | -4 | 11 | 101 | 105
OCCC12CC3CC(CC(CO)(C3)C1)C2 | 5 | -20 | 98 | 94
c1ccc2c(Nc3ccc4c(c3)OCCO4)c3c(nc2c1)CCC3 | 9 | -12 | 97 | 101
ONC(=Nc1ccccc1Cl)c1ccccc1Cl | 2 | 19 | 104 | 97
CC(=O)Nc1ccc(-c2cnc[nH]2)cc1 | -6 | -13 | 104 | 106
N#C/C(=C(/O)CN1CCN(Cc2ccccc2)CC1)c1nc2ccccc2c(=O)[nH]1 | -24 | -31 | 106 | 107
O=C(Sc1cccc2ncccc12)c1ccccc1 | · | -4 | 132 | 205
O=C(OC1CCOC1=O)c1ccc2c(c1)S(=O)(=O)c1ccccc1C2=O (stereo unspecified) | -9 | -9 | 96 | 101
Cc1ccc(S(=O)(=O)NC(=O)NCC2CCN(S(=O)(=O)c3ccccc3)CC2)cc1 | -8 | -9 | 102 | 103
C(=N\Nc1nc(-c2ccc3c(c2)OCCO3)cs1)/c1ccc2c(c1)OCO2 | 20 | -23 | 103 | 103
CCn1c(=O)c(C(C)Nc2ccco2)c(O)c2ccccc21 (stereo unspecified) | · | -8 | 111 | 117

As entered above:
PV pol inh intensity with c1ccc2c(Nc3ccc4c(c3)OCCO4)c3c(nc2c1)CCC3 → 101
PV pol inh intensity with C(=N\Nc1nc(-c2ccc3c(c2)OCCO3)cs1)/c1ccc2c(c1)OCO2 → 103
PV pol inh with Cc1ccc(S(=O)(=O)NC(=O)NCC2CCN(S(=O)(=O)c3ccccc3)CC2)cc1 → 102
PV pol inh intensity with OCCC12CC3CC(CC(CO)(C3)C1)C2 → 94

Continued.
SMILES | MbtI inh | MenB inh | PV pol inh | PV pol inh intensity
CCn1c(SCC(=O)OC)nnc1-c1ccco1 | 1 | -3 | 103 | 103
N#CC(C#N)=C1NC2=C(Cc3ccccc32)C(c2cccs2)=C1C#N | 0 | -32 | 103 | 106
O=C1C2C3C=CC(C3)C2C(=O)N1Cc1ccccc1 (stereo unspecified) | -5 | 4 | 102 | 102
COc1ccccc1N(C)S(=O)(=O)c1ccc(C(=O)Nc2ccccc2N2CCN(C)CC2)cc1 | 24 | 6 | 98 | 108
O=C1O[C@@H](CO)[C@H](O)[C@@H](O)[C@@H]1O | -17 | 3 | 103 | 105
Nc1noc(-c2ccccc2)n1 | 1 | · | 103 | 107
CCc1nnc(Cn2nnc3c(=O)[nH]c(C(=O)Nc4ccc(C)cc4)nc32)s1 | 16 | -89 | 86* | 84*
COC(=O)c1ccccc1NC(=O)CC1(c2ccc(Cl)cc2)C(=O)c2ccccc2C1=O | · | -10 | 108 | 104
COC(=O)C1CCCN1C(=O)C12CC3CC(CC(C3)C1)C2 (stereo unspecified) | -4 | · | 102 | 103
O=C(NC(NC1CCS(=O)(=O)C1)C(=O)c1ccc(Cl)cc1)c1ccco1 (stereo unspecified) | -5 | -48 | 102 | 107
C/C=C/C(=O)OCc1cc(=O)oc2cc(NC(=O)OCC)ccc12 | 52 | -8 | 101 | 103
CCCc1cc(C(=O)N(C2CCCCC2)C2CCCCC2)no1 | -2 | -14 | 100 | 97
Cc1sc2nc(SCC(=O)N(CCO)CCO)nc(N)c2c1C | 31 | 25 | 101 | 101
CC(C)CCNS(=O)(=O)c1cccc2nsnc12 | 5 | -18 | 99 | 105
COc1cc(OC)cc(C(=O)Nc2ccnn2C2CCCCC2)c1 | -6 | -3 | 103 | 108
CCc1nn(CC(=O)N2CCc3ccccc32)c(=O)c2cccn12 | -14 | -1 | 103 | 102
CCOC(=O)N1CCC(N2Cc3cccc(C(=O)NC4CCN(Cc5ccccc5)CC4)c3C2=O)CC1 | -7 | 6 | 101 | 103
CC1S/C(=N\Nc2ccc(Cl)cc2)NC1=O (stereo unspecified) | -8 | 9 | 103 | 102
CC(Cc1cccs1)NCc1ccccc1 (stereo unspecified) | -1 | -14 | 106 | 101
COc1ccc(S(=O)(=O)N2CCCCCC2)cc1C(=O)OC(C)C(N)=O (stereo unspecified) | -4 | -75 | 102 | 106
CCOC(=O)c1c(C)[nH]c(C)c1C(=O)COC(=O)c1ccncc1 | 3 | -3 | 112 | 121
CSc1nc2ccc(S(=O)(=O)Nc3ccc4c(c3)COC4=O)cc2s1 | 2 | -6 | 102 | 105
COc1ccc(C2=NNC(=O)c3ccccc3C2)cc1 | -2 | -4 | 104 | 108
O=C(Nc1cccc(S(=O)(=O)c2cccc(NC(=O)C3CCCO3)c2)c1)C1CCCO1 (stereo unspecified) | -9 | -40 | 106 | 100

Filtered by structure: the entries above with a furan ring, fused or not (3)
SMILES | MbtI inh | MenB inh | PV pol inh | PV pol inh intensity
CCn1c(=O)c(C(C)Nc2ccco2)c(O)c2ccccc21 (stereo unspecified) | · | -8 | 111 | 117
CCn1c(SCC(=O)OC)nnc1-c1ccco1 | 1 | -3 | 103 | 103
O=C(NC(NC1CCS(=O)(=O)C1)C(=O)c1ccc(Cl)cc1)c1ccco1 (stereo unspecified) | -5 | -48 | 102 | 107

New compounds follow:
SMILES | MbtI inh | MenB inh | PV pol inh | PV pol inh intensity
CCN1CCN(c2nc3ccccc3s2)CC1 | 1 | -14 | 97 | 104
Cc1cc(C)n(CCCNC(=O)CSc2nnc3n2CCCCC3)n1 | -1 | -8 | 100 | 103
S=C(NC1=NCCS1)Nc1ccccc1 | 29 | 4 | 98 | 103
CC1(C)C(=O)N(CC(O)CNc2ccccc2)C(=O)N1CN1C(=O)N(CC(O)CNc2ccccc2)C(=O)C1(C)C (stereo unspecified) | 3 | -6 | 102 | 102
COCC(C)n1c(COc2ccccc2F)nnc1SCC(=O)Nc1nc(C)cs1 (stereo unspecified) | -13 | -15 | 101 | 106
CN1CCc2c(sc(N)c2C(=O)O)C1 | 98 | -375 | 95 | 110
CCCOC(=O)c1c(NC(=O)OC)sc2c1CCCCC2 | 30 | -17 | 102 | 103
COCCNC(=O)c1cc2ccccc2o1 | 29 | 25 | 100 | 99
CCN(CC)P(=S)(N(CC)CC)N(CC)CC | -13 | -48 | 100 | 103
Cc1sc2nc(C(C)OC(=O)c3ccc4c(c3)C(=O)N(Cc3ccco3)C4=O)[nH]c(=O)c2c1C (stereo unspecified) | 15 | -1 | 101 | 93
Cc1ccc(C2CC(c3c(F)cccc3Cl)n3nc(N)nc3N2)cc1 (stereo unspecified) | 4 | -2 | 101 | 106
COc1ccc(CCNC(=O)CSc2ccc(C)cc2)cc1OC | 1 | · | 101 | 104
COc1ccc(Cn2nnnc2CN2CCN(c3cc(Cl)ccc3C)CC2)cc1 | -9 | 1 | 105 | 101
Cc1ccc2[nH]c(=O)c(C(c3nnnn3C3CCCC3)N(C)C3CCCCC3)cc2c1 (stereo unspecified) | -4 | 3 | 99 | 102
Cc1ccccc1-n1cnnc1SCC(=O)NC1(C#N)CCCC1 | -5 | 3 | 104 | 104
O=c1c2ccccc2nc(CN2CCOCC2)n1-c1ccccc1F | -8 | -2 | 100 | 101
CC(C)(C)NC(=O)CCc1nc2ccccc2s1 | 1 | 10 | 108 | 103
CCN1CCN(C(=O)c2cccc(F)c2F)CC1 | -4 | 8 | 103 | 103
O=C(c1ccccc1C(F)(F)F)N1CCN(c2ccccc2F)CC1 | 0 | 3 | 102 | 107
O=C(c1cccc(S(=O)(=O)N2CCCC2)c1)N(CC1CCCO1)c1nc2ccccc2s1 (stereo unspecified) | 24 | -29 | 99 | 106
CCc1ccccc1Nc1nc(N)nc(CSCC(=O)c2cc(C)n(C)c2C)n1 | 16 | 12 | 108 | 103
c1ccc2c(c1)N=C(NNC1=Nc3ccccc3SC1)CS2 | 3 | 16 | 98 | 101
COc1ccc(-c2noc(CCC(=O)NCCN3CCN(c4ccccc4F)CC3)n2)cc1 | -6 | -16 | 104 | 106
CC(=O)Oc1cc(OC(C)=O)cc(OC(C)=O)c1 | -1 | -15 | 102 | 104
Cn1c(C(F)(F)F)nc2c(=O)oc3ccccc3c21 | 7 | -17 | 103 | 104
CCN1C(=O)c2ccccc2S(=O)c2ccc(C(=O)NCc3ccccn3)cc21 (stereo unspecified) | 9 | -18 | 96 | 102
O=C1NC(=O)C2C3C=CC(O3)C12 (stereo unspecified) | 77 | 12 | 99 | 104
COc1ccc(NC(C)C(=O)N2CCOCC2)c(OC)c1 (stereo unspecified) | 3 | -4 | 104 | 110
Cc1ccc2nc(-c3ccc(O)cc3O)cn2c1 | i | 9 | 103 | 108
CCOC=Nc1c(C(=O)OCC)sc2nc(SC)ncc12 | -20 | -18 | 102 | 104
CC(=O)[C@@]1(O)CCC2C3C=C(Cl)C4=CC(=O)[C@@H]5CC5[C@]4(C)C3CC[C@@]21C (stereo partly specified) | -12 | -14 | 99 | 103
S=C(NCCN1CCOCC1)Nc1ccccc1 | -1 | -14 | 106 | 102
NC(N)=Nc1nc2cc(Cl)ccc2o1 | 9 | -55 | 104 | 104
S=C(NC1CCCCC1)N(Cc1ccccc1)CC1CC=CCC1 (stereo unspecified) | -2 | -79 | 102 | 100
COc1ccc(OC)c(NC(=O)CNC(=O)Cn2cnc3ccccc3c2=O)c1 | 23 | -2 | 98 | 101
Cc1ccc(C(=O)C(NC(=O)c2ccco2)Nc2ccc(C)c(Cl)c2)cc1 (stereo unspecified) | -10 | -17 | 99 | 102

Ordered by length of the SMILES (lowest first): part of the list above.
SMILES | MbtI inh | MenB inh | PV pol inh | PV pol inh intensity
S=C(NCCN1CCOCC1)Nc1ccccc1 | -1 | -14 | 106 | 102
Cc1ccc2nc(-c3ccc(O)cc3O)cn2c1 | i | 9 | 103 | 108
Cn1c(C(F)(F)F)nc2c(=O)oc3ccccc3c21 | 7 | -17 | 103 | 104
CCN1C(=O)c2ccccc2S(=O)c2ccc(C(=O)NCc3ccccn3)cc21 (stereo unspecified) | 9 | -18 | 96 | 102

Carrying on.
SMILES | MbtI inh | MenB inh | PV pol inh | PV pol inh intensity
O=C(CC(C(=O)N1CCc2ccccc21)n1ccnc1)NC1CCCC1 (stereo unspecified) | -24 | -13 | 101 | 102
CS(=O)(=O)Nc1cc(-c2nnc(Nc3ccccc3)c3ccccc23)ccc1N1CCOCC1 | -8 | -19 | 103 | 108
CC1CCCN(S(=O)(=O)c2ccc3[nH]c(=O)cc(C(=O)NCCc4ccccc4)c3c2)C1 (stereo unspecified) | -15 | -12 | 102 | 103
CC(C)(CNc1ccc(S(=O)(=O)N2CCCC2)cn1)N1CCCCC1 | 3 | -8 | 102 | 104
Cc1ccsc1CNn1cnnc1SCc1ccc(Cl)cc1 | · | -32 | 103 | 101
CN1CCN(NC(=O)CCN2C(=O)/C(=C\c3ccccc3)SC2=S)CC1 | -4 | -14 | 101 | 105
NC(=O)COC(=O)c1ccc(Br)o1 | -5 | · | 101 | 103
CC(C)C1N=C2c3ccccc3N=C(SCc3ccccc3F)N2C1=O (stereo unspecified) | 23 | -10 | 104 | 101
CCOC(=O)C(O)C(C)(C)CN1C(=O)c2ccccc2C1=O (stereo unspecified) | -16 | -23 | 101 | 102
COc1ccc(CCNC(=O)CSc2nc(N)cc(N)n2)cc1 | 1 | 11 | 103 | 104
Cc1ccc(CN2CCC(CNC(=O)Nc3cc(C)cc(C)c3)C2)cc1 (stereo unspecified) | 1 | 7 | 97 | 102
COc1cc(OC)c(C(=O)OCC(=O)N(C)C2CCCCC2)cc1OC | -23 | 6 | 106 | 101

Only MbtI inh and PV pol inh, for 7 of the compounds above:
SMILES | MbtI inh | PV pol inh
CS(=O)(=O)Nc1cc(-c2nnc(Nc3ccccc3)c3ccccc23)ccc1N1CCOCC1 | -8 | 103
CC1CCCN(S(=O)(=O)c2ccc3[nH]c(=O)cc(C(=O)NCCc4ccccc4)c3c2)C1 (stereo unspecified) | -15 | 102
CC(C)(CNc1ccc(S(=O)(=O)N2CCCC2)cn1)N1CCCCC1 | 3 | 102
Cc1ccsc1CNn1cnnc1SCc1ccc(Cl)cc1 | · | 103
CN1CCN(NC(=O)CCN2C(=O)/C(=C\c3ccccc3)SC2=S)CC1 | -4 | 101
NC(=O)COC(=O)c1ccc(Br)o1 | -5 | 101
CC(C)C1N=C2c3ccccc3N=C(SCc3ccccc3F)N2C1=O (stereo unspecified) | 23 | 104

Additional records:
SMILES | MbtI inh | MenB inh | PV pol inh | PV pol inh intensity
C1=CC2c3ccccc3NC(c3ccncc3)C2C1 (stereo unspecified) | · | -3 | 105 | 113
O=C(OCC(=O)c1ccccc1Br)c1ccco1 | -9 | · | 103 | 107
CCOC(=O)c1cnc(SCC(=O)OC)nc1N | 20 | -38 | 100 | 99
COC(=O)c1c2c(c[n+](C)c1C)COC(C)OC2 (stereo unspecified) | 25 | 12 | 97 | 105
COc1cc(C(=O)NCc2nc(-c3ccccc3C)no2)cc(OC)c1OC | -2 | -35 | 106 | 101
Oc1ccccc1C(C#Cc1ccccc1)N1CCCCC1 (stereo unspecified) | -2 | · | 104 | 105
